UUG fidelity: modulators of yeast start codon fidelity, primary screen, whole organism, S. cerevisiae, single point, plate reader; hit rate 0.13% among 350,000; S. cerevisiae UUG-firefly luciferase reporter, luminescence/redox ratio; activity score, % at 18.7 µM;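 active = replicate mean at a twofold rise or more, about +100% in these data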;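 note: firefly luciferase made from a UUG start codon reports start codon fidelity; reporter light over untreated wells divided by growth signal over untreated wells; some hits fall short of that in this replicate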
Env fusion inh: inhibitors of HIV-1 Env-driven cell-cell fusion, primary screen, HeLa-JRFL effector, CEM21 target cells, luciferase | AID 651610, 2012 | inhibition, % at 12.3 µM | hit rate 1.1% among 360,000;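 active = mean replicate inhibition score of at least 50 and every replicate individually at or above 50; inconclusive = only one of the two criteria met; inactive = mean below 50 and not all replicates reaching 50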;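 note: 0% = plate neutral controls and 100% = maraviroc near 300 nM; one replicate is shown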
Active calls of the source: *; ? = inconclusive; [ ] = remark or other dose. This is a subset, so the mix of outcomes need not match the whole.

molecule | UUG fidelity | Env fusion inh
CCCC(=O)Nc1ccc2c(c1)OC[C@@H](C)N(C)C[C@@H](C)[C@@H](OC)CN(C)C2=O | -3 | 4[16.7 µM]
C[C@H](CO)N1C[C@H](C)[C@H](CN(C)S(C)(=O)=O)Oc2ccc(NC(=O)C3CC3)cc2C1=O | -9 | 14[16.7 µM]
C[C@H](CO)N1C[C@H](C)[C@@H](CN(C)Cc2ccc(C(=O)O)cc2)OCCCC[C@H](C)Oc2ccc(NS(=O)(=O)c3cn(C)cn3)cc2C1=O | -8 | -24[16.7 µM]
CNC[C@H]1Oc2c(NS(C)(=O)=O)cccc2C(=O)N([C@H](C)CO)C[C@@H]1C | -15 | -26[16.7 µM]
Cc1ccc(S(=O)(=O)Nc2ccc3c(c2)CC(=O)N([C@@H](C)CO)C[C@@H](C)[C@@H](CN(C)S(=O)(=O)c2ccc(F)cc2)O3)cc1 | 21 | -3[16.7 µM]
C[C@@H]1CN([C@H](C)CO)C(=O)c2cccc(NS(=O)(=O)c3cn(C)cn3)c2O[C@H]1CN(C)Cc1ccccc1 | -11 | -1[16.7 µM]
C[C@@H]1CN([C@@H](C)CO)S(=O)(=O)c2ccc(-c3ccncc3)cc2O[C@@H]1CN(C)C(=O)Nc1ccc(C(F)(F)F)cc1 | -18 | 22[16.7 µM]
CN(C)CCCNC(=O)C[C@@H]1C=C[C@H](NC(=O)Cc2cccnc2)[C@@H](CO)O1 | -3 | -1[16.7 µM]
COCC(=O)N[C@H]1C=C[C@H](CC(=O)NCc2ccccc2OC)O[C@H]1CO | -9 | 10[16.7 µM]
C[C@@H]1CN([C@H](C)CO)C(=O)c2cc(NC(=O)Nc3ccccc3)ccc2O[C@@H](C)CCCCO[C@@H]1CN(C)Cc1ccc(C(F)(F)F)cc1 | 5 | 58*[16.7 µM]
Cc1noc(C)c1NC(=O)Nc1ccc2c(c1)C(=O)N([C@H](C)CO)C[C@H](C)[C@H](CN(C)Cc1ccccc1)OCCCC[C@H](C)O2 | 4 | 8[16.7 µM]
C[C@H](CO)N1C[C@H](C)[C@@H](CN(C)CC2CC2)Oc2c(NC(=O)NC3CCCCC3)cccc2C1=O | 18 | -23[16.7 µM]
CC(C)NC(=O)N(C)C[C@@H]1OCCCC[C@@H](C)Oc2ccc(NS(C)(=O)=O)cc2C(=O)N([C@H](C)CO)C[C@@H]1C | -6 | 6[16.7 µM]
C[C@@H]1CN([C@@H](C)CO)S(=O)(=O)c2ccc(-c3cccc(C(=O)N(C)C)c3)cc2O[C@@H]1CN(C)Cc1ccc2c(c1)OCO2 | 9 | -14[16.7 µM]
C[C@H](CO)N1C[C@H](C)[C@@H](CN(C)C(=O)Nc2ccccc2)Oc2ccc(NC(=O)Nc3ccc(F)cc3)cc2C1=O | 8 | 0[16.7 µM]
COc1cc2c(cc1OC)CN(C(=O)[C@H]1[C@@H]3C(=O)O[C@@H](c4ccccc4)[C@@H](c4ccccc4)N3[C@@H](c3ccccc3OCCO)[C@]13C(=O)Nc1ccccc13)CC2 | -15 | -97[16.7 µM]
COc1ccc(S(=O)(=O)Nc2ccc3c(c2)C(=O)N([C@@H](C)CO)C[C@H](C)[C@@H](CN(C)C(=O)Nc2ccc(F)cc2)OCCCC[C@@H](C)O3)cc1 | -9 | -51[16.7 µM]
C[C@H](CO)N1C[C@H](C)[C@H](CN(C)C(=O)Nc2ccc3c(c2)OCO3)OCCCC[C@H](C)Oc2ccc(NC(=O)Cc3ccccc3)cc2C1=O | -6 | -17[16.7 µM]
CN(C)C(=O)c1cccc(-c2ccc([C@H]3[C@@H](C#N)N(C(=O)C4CCCCC4)[C@H]3CO)cc2)c1 | -2 | 15[16.7 µM]
C[C@@H]1CN([C@H](C)CO)C(=O)Cc2cc(NC(=O)C3CC3)ccc2O[C@@H]1CN(C)S(=O)(=O)c1ccc(F)cc1 | -2 | 28[16.7 µM]
O=C(C[C@@H]1C[C@@H]2c3cc(NC(=O)NC4CCCC4)ccc3O[C@@H]2[C@H](CO)O1)NC1CCCCC1 | -7 | 54[16.7 µM]
C[C@@H]1CN([C@H](C)CO)C(=O)Cc2cc(NC(=O)Nc3ccc4c(c3)OCO4)ccc2O[C@@H]1CN(C)C(=O)Nc1ccc2c(c1)OCO2 | 9 | 5[16.7 µM]
CC(=O)N[C@@H]1CC[C@@H](CCNC(=O)C2CC2)O[C@@H]1CO | -8 | -1[16.7 µM]
N#C[C@@H]1[C@H](c2ccc(C#Cc3ccccc3F)cc2)[C@H](CO)N1C(=O)C1CCC1 | 2 | -6[16.7 µM]
COc1ccc(CNC(=O)C[C@@H]2C=C[C@H](NC(=O)c3cccc(F)c3)[C@H](CO)O2)cc1 | 20 | 6[16.7 µM]
COC(=O)C[C@H]1CC[C@H]2[C@@H](COC[C@H](O)CN2S(=O)(=O)c2ccccc2OC)O1 | 1 | -4[16.7 µM]
O=C(N[C@H]1CC[C@@H](CCn2cc(C3(O)CCCC3)nn2)O[C@H]1CO)C1CC1 | -5 | 1[16.7 µM]
C[C@@H]1CCCCO[C@@H](CN(C)C(=O)C2CCCCC2)[C@H](C)CN([C@H](C)CO)C(=O)c2cc(NC(=O)C3CCCCC3)ccc2O1 | 10 | 1[16.7 µM]
COc1ccc(S(=O)(=O)Nc2ccc3c(c2)C(=O)N([C@@H](C)CO)C[C@@H](C)[C@H](CN(C)C(=O)Nc2ccc4c(c2)OCO4)O3)cc1 | -3 | 28[16.7 µM]
COc1ccc(CNC(=O)C[C@@H]2CC[C@@H](NS(=O)(=O)c3cccc(OC)c3)[C@H](CO)O2)cc1 | -13 | -1[16.7 µM]

Three entries out of the list above, sorted by the number in UUG fidelity, low to high:
molecule | UUG fidelity | Env fusion inh
CN(C)C(=O)c1cccc(-c2ccc([C@H]3[C@@H](C#N)N(C(=O)C4CCCCC4)[C@H]3CO)cc2)c1 | -2 | 15[16.7 µM]
COC(=O)C[C@H]1CC[C@H]2[C@@H](COC[C@H](O)CN2S(=O)(=O)c2ccccc2OC)O1 | 1 | -4[16.7 µM]
N#C[C@@H]1[C@H](c2ccc(C#Cc3ccccc3F)cc2)[C@H](CO)N1C(=O)C1CCC1 | 2 | -6[16.7 µM]

(cont.)
molecule | UUG fidelity | Env fusion inh
C[C@H](CO)N1C[C@H](C)[C@@H](CN(C)Cc2ccc(Cl)c(Cl)c2)Oc2ccc(NC(=O)CCC(F)(F)F)cc2CC1=O | -7 | 9[16.7 µM]
CCCNC(=O)N[C@H]1CC[C@@H](CC(=O)N2CCN(C)CC2)O[C@@H]1CO | -11 | 5[16.7 µM]
C[C@@H]1CCCCO[C@H](CN(C)CC2CCCCC2)[C@@H](C)CN([C@H](C)CO)C(=O)c2cc(NC(=O)Nc3ccc(C(F)(F)F)cc3)ccc2O1 | 2 | 12[16.7 µM]
C[C@H](CO)N1C[C@H](C)[C@@H](CN(C)C)Oc2cc(-c3cccnc3)ccc2S1(=O)=O | -17 | 20[16.7 µM]
C[C@H]1CN([C@@H](C)CO)C(=O)c2cc(C#Cc3ccccc3)cnc2O[C@H]1CN(C)CC1CCOCC1 | -6 | 3[16.7 µM]
COc1ccc(S(=O)(=O)Nc2ccc3c(c2)CC(=O)N([C@H](C)CO)C[C@H](C)[C@@H](CN(C)C(=O)Nc2ccccc2)O3)cc1 | 7 | 6[16.7 µM]
C[C@@H]1CN([C@H](C)CO)C(=O)Cc2cc(NS(=O)(=O)c3cccs3)ccc2O[C@H]1CN(C)S(=O)(=O)c1cn(C)cn1 | -11 | -5[16.7 µM]
C[C@H](CO)N1C[C@H](C)[C@H](CN(C)S(C)(=O)=O)Oc2ccc(NC(=O)c3ccncc3)cc2C1=O | -7 | 1[16.7 µM]
C[C@H]1CN([C@@H](C)CO)S(=O)(=O)c2ccc(-c3ccccc3F)cc2O[C@H]1CN(C)S(C)(=O)=O | -7 | 32[16.7 µM]
O=C(CCN1CCCCC1)N[C@@H]1CC[C@@H](CCn2cc(-c3cccc(F)c3)nn2)O[C@@H]1CO | -7 | 14[16.7 µM]
COc1ccc(S(=O)(=O)N[C@H]2C=C[C@H](CC(=O)N3CCN(c4ccccc4)CC3)O[C@@H]2CO)cc1 | 9 | 59*[16.7 µM]
Cc1noc(C)c1NC(=O)Nc1ccc2c(c1)CC(=O)N([C@H](C)CO)C[C@@H](C)[C@@H](CN(C)S(=O)(=O)c1c(C)noc1C)O2 | 3 | 1[16.7 µM]
COc1ccc(S(=O)(=O)N(C)C[C@H]2Oc3cc(C#CC4CCCC4)ccc3S(=O)(=O)N([C@@H](C)CO)C[C@@H]2C)cc1 | -8 | 9[16.7 µM]
C[C@H](CO)N1C[C@H](C)[C@@H](CN(C)S(=O)(=O)c2cn(C)cn2)OCCCC[C@H](C)Oc2ccc(NS(=O)(=O)c3ccccc3)cc2C1=O | 1 | -2[16.7 µM]
Cc1ccc(S(=O)(=O)Nc2cccc3c2O[C@H](CN(C)CC2CC2)[C@@H](C)CN([C@H](C)CO)C3=O)cc1 | -1 | 2[16.7 µM]
CCCN1C[C@@H](C)[C@H](OC)CN(C)C(=O)c2ccc(NC(=O)C3CCOCC3)cc2OC[C@@H]1C | -12 | -15[16.7 µM]
C[C@H](CO)N1C[C@H](C)[C@H](CN(C)Cc2ccc(-c3ccccc3)cc2)Oc2ccc(NC(=O)Cn3cnnn3)cc2C1=O | 2 | -40[16.7 µM]
CO[C@@H]1CN(C)C(=O)c2cc(NC(=O)c3ccc(F)cc3)ccc2OC[C@@H](C)N(C)C[C@H]1C | 4 | -9[16.7 µM]
C[C@H]1CN([C@@H](C)CO)S(=O)(=O)c2ccc(-c3ccncc3)cc2O[C@H]1CN(C)S(C)(=O)=O | -23 | 13[16.7 µM]
O=C(C[C@H]1C[C@H]2c3cc(NC(=O)Nc4ccccc4F)ccc3O[C@H]2[C@@H](CO)O1)NCC(F)(F)F | -11 | -3[16.7 µM]
C[C@@H]1CN([C@H](C)CO)S(=O)(=O)c2ccc(C#CC3CCCC3)cc2O[C@@H]1CN(C)C(=O)Cc1ccncc1 | 9 | -19[16.7 µM]
Cc1cc(C(=O)Nc2cccc3c2O[C@@H](CN(C)Cc2ccccc2)[C@H](C)CN([C@@H](C)CO)C3=O)n(C)n1 | -12 | -4[16.7 µM]
O=C(Cc1ccccc1)N[C@H]1CC[C@H](CC(=O)N2CCOCC2)O[C@@H]1CO | 21 | -12[16.7 µM]
Cc1ccccc1S(=O)(=O)NCC[C@H]1CC[C@@H](NC(=O)Nc2cccc(Cl)c2)[C@H](CO)O1 | 5 | 1[16.7 µM]
COc1ccc(NC(=O)N(C)C[C@H]2OCCCC[C@@H](C)Oc3ccc(N(C)C)cc3C(=O)N([C@@H](C)CO)C[C@@H]2C)cc1 | 11 | 5[16.7 µM]
Cc1ccc(S(=O)(=O)N(C)C[C@@H]2Oc3ccc(NS(=O)(=O)c4ccc(F)cc4)cc3C(=O)N([C@@H](C)CO)C[C@H]2C)cc1 | 5 | 13[16.7 µM]
O=C(Cc1ccncc1)NCC[C@H]1CC[C@H](NS(=O)(=O)c2ccccc2Cl)[C@H](CO)O1 | -16 | 5[16.7 µM]
O=C(NC1CCCCC1)N[C@H]1CC[C@@H](CCNS(=O)(=O)c2ccccc2)O[C@H]1CO | 7 | 7[16.7 µM]
C[C@H]1CCCCO[C@@H](CN(C)S(=O)(=O)c2ccc(F)cc2)[C@@H](C)CN([C@@H](C)CO)C(=O)c2cc(NC(=O)NC3CCCCC3)ccc2O1 | 4 | ?
C[C@H]1CN([C@@H](C)CO)C(=O)c2cc(NC(=O)C3CC3)ccc2O[C@@H]1CN(C)Cc1ccc2c(c1)OCO2 | 4 | 6[16.7 µM]
C[C@@H]1CN([C@@H](C)CO)S(=O)(=O)c2ccc(-c3ccc(F)cc3)cc2O[C@H]1CN(C)S(C)(=O)=O | 12 | -7[16.7 µM]
CC(C)NC(=O)N(C)C[C@H]1Oc2c(NC(=O)Nc3cccc4ccccc34)cccc2C(=O)N([C@H](C)CO)C[C@@H]1C | 10 | 17[16.7 µM]
COc1ccc(CN(C)C[C@H]2OCCCC[C@H](C)Oc3ccc(NS(=O)(=O)c4c(C)noc4C)cc3C(=O)N([C@H](C)CO)C[C@@H]2C)cc1 | 2 | -10[16.7 µM]
COCc1cn(CC[C@@H]2CC[C@@H](NC(=O)Nc3ccc(Cl)cc3)[C@H](CO)O2)nn1 | -20 | 1[16.7 µM]
CN1C(=O)c2cc(NC(=O)C3CCCC3)ccc2OC[C@H]2O[C@H](CC(=O)Nc3ccccc3)CC[C@@H]21 | 27 | -7[16.7 µM]
C[C@@H]1CN([C@@H](C)CO)C(=O)c2cc(NC(=O)C3CCCCC3)ccc2O[C@H]1CN(C)S(C)(=O)=O | 3 | 16[16.7 µM]

Rewritten field by field: four of the compounds above
COc1ccc(CNC(=O)C[C@@H]2C=C[C@H](NC(=O)c3cccc(F)c3)[C@H](CO)O2)cc1
- UUG fidelity: 20
- Env fusion inh: 6[16.7 µM]

COC(=O)C[C@H]1CC[C@H]2[C@@H](COC[C@H](O)CN2S(=O)(=O)c2ccccc2OC)O1
- UUG fidelity: 1
- Env fusion inh: -4[16.7 µM]

O=C(N[C@H]1CC[C@@H](CCn2cc(C3(O)CCCC3)nn2)O[C@H]1CO)C1CC1
- UUG fidelity: -5
- Env fusion inh: 1[16.7 µM]

C[C@@H]1CCCCO[C@@H](CN(C)C(=O)C2CCCCC2)[C@H](C)CN([C@H](C)CO)C(=O)c2cc(NC(=O)C3CCCCC3)ccc2O1
- UUG fidelity: 10
- Env fusion inh: 1[16.7 µM]
